Vaccinia stage – Vaccinia orthopox stage-specific inhibition; actives 0.01% (n = 89,000); AID 1053133; Vaccinia-infected cells, mCherry/Venus stage reporter fluorescence; stronger effect = lower value; some inactives read as strong as hits; activity change (mCherry), % (test concentration not listed);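 active means mCherry past -33% and 40 or more points under the early reporter, replicates agreeing; inconclusive means past -33% without that gap or agreement; tested in A549 cells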;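 further: scaled between vehicle wells and reference inhibitor wells; 23 nL library stock went into each well; one replicate is shown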
Vaccinia stage Venus – recorded beside Vaccinia stage, whose call it bears; activity change (Venus), %; measured here: Venus reporter, other viral stage;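 negative = less Venus signal; first of two replicates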
* marks the source's active call; other numbers are inactive results; ? = inconclusive; . = not tested or not shown; & = joins results of further samples. This is a subset; count on the stated rates, not on these rows.

# | smiles | Vaccinia stage | Vaccinia stage Venus
1 | COc1ccccc1CN1C[C@H](C)[C@H](OC)CN(C)C(=O)c2ccc(NC(C)=O)cc2OC[C@@H]1C | 8 | 4
2 | C[C@H](CO)N1C[C@H](C)[C@H](CN(C)S(=O)(=O)c2ccc(F)cc2)OCCCC[C@H](C)Oc2ccc(NC(=O)CCCCCC(=O)Nc3ccccc3N)cc2C1=O | 10 | 10
3 | C[C@H](CO)N1C[C@H](C)[C@H](CN(C)Cc2ccc(Oc3ccccc3)cc2)Oc2ccc(N(C)C)cc2CC1=O | 11 | 0
4 | CCNC(=O)Nc1ccc2c(c1)C(=O)N(C)[C@H]1CC[C@@H](CC(=O)NCC3CCCCC3)O[C@@H]1CO2 | -11 | -17
5 | COc1cccc(NC(=O)N[C@@H]2C=C[C@H](CC(=O)N3CCN(C)CC3)O[C@H]2CO)c1 | 13 | 4
6 | O=C(NC1CCC1)[C@H]1[C@H](CO)[C@H]2Cn3c(cccc3=O)[C@H]2N1CC1CCOCC1 | 26 | 10
7 | C[C@H]1CCCCO[C@@H](CN(C)C)[C@@H](C)CN([C@@H](C)CO)C(=O)c2cc(NC(=O)Nc3ccc(F)cc3)ccc2O1 | -5 | -4
8 | CCC(=O)N1C[C@H](C)[C@H](OC)CN(C)C(=O)c2ccc(NC(=O)c3cnccn3)cc2OC[C@@H]1C | 6 | 2
9 | C/C=C/c1ccc2c(c1)O[C@@H](CN(C)C(=O)CN(C)C)[C@H](C)CN([C@H](C)CO)S2(=O)=O | 7 | -1
10 | CCC(=O)N(C)C[C@H]1Oc2cc(-c3ccc(C)cc3)ccc2S(=O)(=O)N([C@H](C)CO)C[C@@H]1C | -10 | -10

Quoted at random: 4 records from the list
# | smiles | Vaccinia stage | Vaccinia stage Venus
3 | C[C@H](CO)N1C[C@H](C)[C@H](CN(C)Cc2ccc(Oc3ccccc3)cc2)Oc2ccc(N(C)C)cc2CC1=O | 11 | 0
7 | C[C@H]1CCCCO[C@@H](CN(C)C)[C@@H](C)CN([C@@H](C)CO)C(=O)c2cc(NC(=O)Nc3ccc(F)cc3)ccc2O1 | -5 | -4
1 | COc1ccccc1CN1C[C@H](C)[C@H](OC)CN(C)C(=O)c2ccc(NC(C)=O)cc2OC[C@@H]1C | 8 | 4
5 | COc1cccc(NC(=O)N[C@@H]2C=C[C@H](CC(=O)N3CCN(C)CC3)O[C@H]2CO)c1 | 13 | 4

Next section:
# | smiles | Vaccinia stage | Vaccinia stage Venus
11 | C[C@@H]1CN([C@@H](C)CO)C(=O)c2cc(C#CC3CCCC3)cnc2O[C@H]1CN(C)C(=O)Nc1ccccc1 | -17 | -17
12 | CO[C@@H]1CN(C)C(=O)c2cc(NC(=O)C3CCC3)ccc2OC[C@H](C)N(Cc2nccs2)C[C@@H]1C | -2 | -4
13 | C[C@H](CO)N1C[C@H](C)[C@H](CN(C)S(C)(=O)=O)Oc2c(NS(=O)(=O)c3cn(C)cn3)cccc2C1=O | 0 | 0
14 | C[C@H]1CN([C@@H](C)CO)C(=O)c2cc(C#Cc3cccnc3)cnc2O[C@H]1CN(C)C(=O)CN(C)C | 2 | 4
15 | C[C@@H]1CN([C@H](C)CO)C(=O)Cc2cc(NC(=O)NC3CCCCC3)ccc2O[C@H]1CN(C)C(=O)Nc1ccc(F)cc1 | 4 | 0
16 | O=C([C@H]1[C@H](CO)[C@H]2Cn3c(cccc3=O)[C@@H]1N2Cc1cocn1)N1CCCCC1 | -8 | -6
17 | COc1ccccc1-c1cnc2c(c1)C(=O)N([C@@H](C)CO)C[C@H](C)[C@@H](CN(C)Cc1cccc(F)c1)O2 | ? | .
18 | COc1ccc(NC(=O)N(C)C[C@@H]2Oc3ccc(NC(=O)Cc4cn(C)c5ccccc45)cc3C(=O)N([C@@H](C)CO)C[C@H]2C)cc1 | 8 | 13
19 | O=C(NCc1ccncc1)[C@@H]1N[C@@H]2c3ccc(/C=C/c4ccccc4)c(=O)n3C[C@@H]2[C@H]1CO | -4 | 8
20 | C[C@@H]1CN([C@H](C)CO)C(=O)c2cccc(NS(=O)(=O)c3ccccc3)c2O[C@H]1CN(C)Cc1ccccc1 | 8 | 5
21 | COc1ccc2c3c([nH]c2c1)[C@@H](CO)N(C(=O)c1ccc(F)cc1)CC31CN(Cc2cccnc2)C1 | -17 | -22
22 | C[C@H]1CN([C@@H](C)CO)C(=O)c2cc(-c3cncnc3)cnc2O[C@@H]1CN(C)C(=O)Cc1cccnc1 | 22 | 9
23 | N#C[C@H]1[C@@H](c2ccccc2)[C@@H](CO)N1C(=O)Cc1ccccc1 | 15 | 22
24 | CC(C)NC(=O)N(C)C[C@@H]1Oc2c(NC(=O)Nc3ccc(C(F)(F)F)cc3)cccc2C(=O)N([C@@H](C)CO)C[C@H]1C | ? | .
25 | C[C@H]1CN([C@@H](C)CO)C(=O)CCCn2nncc2CO[C@@H]1CN(C)S(=O)(=O)c1ccc(-c2ccccc2)cc1 | 22 | 18
26 | CO[C@@H](CN(C)S(=O)(=O)c1cn(C)cn1)[C@H](C)CN(C(=O)Nc1ccc(F)cc1)[C@@H](C)CO | 13 | 9
27 | COCC#Cc1cnc2c(c1)C(=O)N([C@@H](C)CO)C[C@H](C)[C@H](CN(C)C(=O)CCN1CCCCC1)O2 | 20 | 5
28 | C[C@H](CO)N1C[C@H](C)[C@@H](CN(C)C(=O)Cc2ccccc2)OCCCC[C@H](C)Oc2ccc(NC(=O)c3ccccc3)cc2C1=O | -22 | -27
29 | C[C@@H]1CCCCO[C@@H](CN(C)C(=O)Nc2cccc3ccccc23)[C@@H](C)CN([C@H](C)CO)C(=O)c2cc(NC(=O)Nc3cccc4ccccc34)ccc2O1 | 36 | 19
30 | C[C@@H]1CN([C@@H](C)CO)C(=O)c2cccc(NC(=O)Nc3ccc(C(F)(F)F)cc3)c2O[C@H]1CN(C)Cc1ccc2c(c1)OCO2 | -29 | -25
31 | COc1ccc2c3c([nH]c2c1)[C@@H](CO)N(C(=O)CN1CCOCC1)CC31CCN(C)CC1 | 9 | -5
32 | C[C@H]1CN([C@@H](C)CO)C(=O)c2cccc(NS(=O)(=O)c3cccs3)c2O[C@H]1CN(C)Cc1ccccc1 | 12 | 7
33 | CCCC#Cc1ccc([C@@H]2[C@@H](CO)N3CCCCN(C(=O)Cc4ccccn4)C[C@@H]23)cc1 | -5 | 4
34 | COc1ccc2c3c(n(C)c2c1)[C@H](CO)N(C(=O)Cc1ccccn1)CC31CN(CC2CC2)C1 | -5 | -10
35 | O=C(N[C@H]1CC[C@@H](CCNS(=O)(=O)c2ccccc2)O[C@@H]1CO)c1cccnc1 | 1 | 9
36 | C/C=C/c1cnc2c(c1)C(=O)N([C@H](C)CO)C[C@@H](C)[C@@H](CN(C)S(=O)(=O)c1ccc(F)cc1)O2 | 15 | 11
37 | C[C@H]1CN([C@@H](C)CO)C(=O)c2cccc(NC(=O)Nc3ccc4c(c3)OCO4)c2O[C@H]1CN(C)C(=O)Nc1ccc2c(c1)OCO2 | -18 | -12
38 | C[C@@H]1CN([C@H](C)CO)C(=O)Cc2cc(NS(=O)(=O)c3ccc(F)cc3)ccc2O[C@@H]1CN(C)C(=O)Nc1ccc(F)cc1 | 12 | 9
39 | O=C(c1cnccn1)N1CC(=O)N2[C@H](CO)[C@@H](c3ccc(C4=CCCCC4)cc3)[C@@H]2C1 | -17 | -14
40 | CC(C)NC(=O)N1[C@H](CO)[C@@H]2c3ccccc3N(C(=O)c3ccncc3)C[C@@H]21 | 25 | 12
41 | COc1ccc2c3c(n(C)c2c1)[C@@H](CO)NCC31CCN(C(=O)Nc2ccc3c(c2)OCO3)CC1 | -12 | -8
42 | Cc1noc(C)c1NC(=O)N(C)C[C@H]1Oc2ccc(NC(=O)CCN3CCOCC3)cc2C(=O)N([C@H](C)CO)C[C@H]1C | 18 | 11
43 | COc1ccc(S(=O)(=O)Nc2ccc3c(c2)C(=O)N([C@@H](C)CO)C[C@@H](C)[C@@H](CN(C)S(=O)(=O)c2ccc(F)cc2)OCCCC[C@H](C)O3)cc1 | -4 | -1
44 | C[C@H](CO)N1C[C@H](C)[C@@H](CN(C)C(=O)NC2CCCC2)Oc2ncc(Br)cc2C1=O | 7 | -11
45 | CN(C)C(=O)c1cccc(-c2ccc([C@@H]3[C@H](C#N)N(C(=O)C4CCC4)[C@H]3CO)cc2)c1 | 9 | 9
46 | C[C@@H]1CCCCO[C@@H](CN(C)S(=O)(=O)c2ccc(Cl)cc2)[C@@H](C)CN([C@H](C)CO)C(=O)c2cc(NC(=O)CCCN(C)C)ccc2O1 | 32 | 14
47 | CCN1[C@@H]2c3ccc(-c4ccccc4OC)c(=O)n3C[C@@H]2[C@@H](CO)[C@@H]1C(=O)N(C)C | 7 | 16
48 | CO[C@H]1CN(C)C(=O)c2ccc(NC(=O)NC(C)C)cc2OC[C@@H](C)N(C)C[C@@H]1C | -8 | -1
49 | Cc1noc(C)c1NC(=O)Nc1ccc2c(c1)C(=O)N([C@@H](C)CO)C[C@H](C)[C@H](CN(C)C)O2 | 19 | 20
50 | C[C@@H]1CCCCO[C@H](CN(C)C(=O)Nc2ccc(C(F)(F)F)cc2)[C@@H](C)CN([C@H](C)CO)C(=O)c2cc(NC(=O)Nc3ccc(F)cc3)ccc2O1 | 11 | 0
51 | CCCC(=O)N1CC2(C1)CN(Cc1ccc(Cl)cc1)[C@@H](CO)c1[nH]c3cc(OC)ccc3c12 | -5 | 4
52 | C[C@@H](O)C#Cc1ccc([C@@H]2[C@@H](CO)N3CCCCN(CC4CCOCC4)C[C@@H]23)cc1 | 14 | 3
53 | O=C(C[C@@H]1CC[C@@H]2[C@H](COC[C@@H](O)CN2Cc2cccc(Cl)c2)O1)Nc1nccs1 | -16 | -8
54 | C[C@@H](NC(=O)C[C@@H]1CC[C@H]2[C@@H](COC[C@@H](O)CN2Cc2cc(F)ccc2F)O1)c1ccccc1 | 1 | -3
55 | CO[C@@H]1CN(C)C(=O)c2ccc(NC(=O)c3ccc4c(c3)OCO4)cc2OC[C@@H](C)N(CCC(F)(F)F)C[C@H]1C | -19 | -11
56 | C/C=C/c1ccc2c(c1)O[C@H](CN(C)C(=O)Nc1ccc(C(F)(F)F)cc1)[C@@H](C)CN([C@H](C)CO)S2(=O)=O | ? | .
57 | C[C@@H]1CN([C@H](C)CO)C(=O)Cc2cc(NS(=O)(=O)c3ccc(Cl)cc3)ccc2O[C@H]1CN(C)S(=O)(=O)c1ccccc1 | 11 | 2
58 | CS(=O)(=O)N1CC(=O)N2[C@H](C1)[C@@H](c1ccc(C#CCc3ccccc3)cc1)[C@@H]2CO | 17 | -3
59 | COCC(=O)N1CCCCN2[C@H](CO)[C@H](c3ccc(-c4ccc(OC)cc4)cc3)[C@H]2C1 | 17 | 0
60 | COCC(=O)Nc1ccc2c(c1)OC[C@H](C)N(C(=O)c1ccncc1)C[C@H](C)[C@@H](OC)CN(C)C2=O | 10 | 12

New compounds follow.
# | smiles | Vaccinia stage | Vaccinia stage Venus
61 | Cc1noc(C)c1S(=O)(=O)Nc1ccc2c(c1)C(=O)N([C@H](C)CO)C[C@H](C)[C@H](CN(C)CC1CCCCC1)OCCCC[C@H](C)O2 | ? | .
62 | C[C@@H]1CCCCO[C@H](CN(C)C(=O)C2CCCCC2)[C@@H](C)CN([C@H](C)CO)C(=O)c2cc(NC(=O)Nc3ccccc3)ccc2O1 | 13 | 0
63 | CC(=O)N1CCCCN2[C@H](CO)[C@H](c3ccc(C#Cc4ccccc4F)cc3)[C@@H]2C1 | -32 | -37
64 | COc1ccc(S(=O)(=O)N(C)C[C@H]2OCCCC[C@H](C)Oc3ccc(NC(=O)Nc4ccc(F)cc4)cc3C(=O)N([C@H](C)CO)C[C@H]2C)cc1 | 19 | 9
65 | C[C@@H]1CN([C@H](C)CO)C(=O)c2cc(C3=CCCCC3)cnc2O[C@H]1CN(C)C(=O)Cc1ccccc1 | -12 | 0
66 | CCCC#Cc1ccc([C@H]2[C@H](CO)N3CCCCN(S(C)(=O)=O)C[C@@H]23)cc1 | 11 | -2
67 | CC(C)NC(=O)N[C@@H]1CC[C@H](CCNC(=O)C2CCC2)O[C@@H]1CO | 7 | 12
68 | CS(=O)(=O)N1[C@@H](C#N)[C@@H](c2ccc(C#CC3CC3)cc2)[C@@H]1CO | 3 | 9
69 | CN(C)CCCNC(=O)C[C@@H]1CC[C@@H](NS(=O)(=O)c2ccc(F)cc2)[C@@H](CO)O1 | 7 | 1
70 | C[C@H](CO)N1C[C@H](C)[C@H](CN(C)Cc2ccc3c(c2)OCO3)Oc2ncc(C#CCN(C)C)cc2C1=O | -1&-3 | -3&4

The final 2 compounds of the part above lead into the next:
# | smiles | Vaccinia stage | Vaccinia stage Venus
69 | CN(C)CCCNC(=O)C[C@@H]1CC[C@@H](NS(=O)(=O)c2ccc(F)cc2)[C@@H](CO)O1 | 7 | 1
70 | C[C@H](CO)N1C[C@H](C)[C@H](CN(C)Cc2ccc3c(c2)OCO3)Oc2ncc(C#CCN(C)C)cc2C1=O | -1&-3 | -3&4
71 | O=C(C[C@@H]1C[C@@H]2c3cc(NC(=O)C4CCOCC4)ccc3O[C@@H]2[C@@H](CO)O1)NCc1cccnc1 | 6 | 12
72 | CCCC#Cc1ccc2c(c1)O[C@H](CN(C)S(=O)(=O)c1cccc(F)c1)[C@@H](C)CN([C@H](C)CO)S2(=O)=O | -23 | -18
73 | CCS(=O)(=O)N1CC2(C1)[C@H](c1ccccc1)[C@@H](CO)N2C(=O)c1ccccc1 | 0 | 3
74 | O=C(C[C@H]1CC[C@@H](NC(=O)c2ccncc2)[C@H](CO)O1)Nc1ccc(-c2ccccc2)cc1 | -14 | -6
75 | CN1C[C@H](O)COC[C@@H]2O[C@H](CC(=O)NC3CCC3)CC[C@H]21 | -2 | 13
76 | CC(C)CC#Cc1ccc2c(c1)O[C@@H](CN(C)C(=O)Cc1cccnc1)[C@@H](C)CN([C@H](C)CO)S2(=O)=O | -30 | -16
77 | C[C@@H]1CN([C@@H](C)CO)C(=O)c2cc(NS(=O)(=O)c3ccc(Cl)cc3)ccc2O[C@@H](C)CCCCO[C@H]1CN(C)Cc1ccc(C(F)(F)F)cc1 | ? | .
